ClpP mod: qHTS Assay for Activators of ClpP; purified B. subtilis ClpP, FRET peptide cleavage, 20 min; Potency, µM (highest dose often 57.5 µM), inactives show at the top dose activity change, negative = active; actives 1.9% (n = 340,000); active = well fitted falling curve with a large enough effect; inconclusive = small, poorly fitted or top-dose-only effect; inactive = no such curve, though single readings can be large or run the other way; also: potency is read from the fitted curve at half-maximal effect; the source files actives as falling curves though it sought activators and does not explain the sign; nearly all actives have a fitted effect of over 65% in size; many hits overshoot -100%
Target sequence (P80244 whole entry, looked up): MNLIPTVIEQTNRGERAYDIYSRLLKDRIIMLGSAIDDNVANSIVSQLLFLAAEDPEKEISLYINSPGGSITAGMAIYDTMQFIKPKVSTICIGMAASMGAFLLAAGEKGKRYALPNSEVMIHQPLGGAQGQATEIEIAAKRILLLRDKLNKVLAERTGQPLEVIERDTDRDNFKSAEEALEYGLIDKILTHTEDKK
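FRET quenching reversal measured ClpP activation: 10 microg/mL B. subtilis ClpP at pH 8 with the FRET-FV decapeptide, read at 430 nm after 320 nm excitation. The 20-min minus 0-min signal was scaled between DMSO/no-enzyme wells and ADEP (5.8 microM final).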
Menin-MLL FL inh: qHTS Assay for Inhibitors Targeting the Menin-MLL Interaction in MLL Related Leukemias: Competition With Fluorescein Labeled MLL-derived Peptide | 290,000 tested, under 10 active | Fluorescence polarization, fluorescein-MLL peptide displacement from menin | FP activity change, % at 61.4 µM | AID 1766, 2009; inconclusive = falling polarisation curve, or a change in total fluorescence; inactive = total fluorescence flat and polarisation flat or rising; no compound was filed as active; the % refers to the polarisation; negative = inhibition;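 also: % of control where 0% means no effect; inhibitors lower the polarisation; unlabelled MLL peptide was the positive control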
gsp agonist: qHTS for Agonist of gsp, the Etiologic Mutation Responsible for Fibrous Dysplasia/McCune-Albright Syndrome: qHTS; actives 0.13% (n = 340,000); gsp mutant cells, cAMP HTRF, 30 min; control for the full effect not named in the record; Potency, µM (titrated, usually from 76.9 µM), inactives show at the top dose activation (cAMP increase), most hits filed as activators; active = well fitted activation curve with a large enough effect; inconclusive = small, poorly fitted or top-dose-only effect, or another doubt; inactive = no such curve, though single readings can be large or run the other way; cell line not stated here;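 also: phosphodiesterase inhibitor Ro 20-1724 added with compounds to block cAMP breakdown; potency is read from the fitted curve at half-maximal effect; nearly all actives have a fitted effect of over 60% in size; about a fifth of the inactives were tested at one dose only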
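Cells stably selected in G418 were plated at 2000/well, grown 16-24 hr, then given compounds in DMSO with the PDE inhibitor […] (300 uM solution added) for 30 min at 37C; cAMP was read by HTRF.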
TRPV1 PAM: HTS Assay for Compounds that Act as Potentiators of the Vanilloid Receptor 1; actives 0.02% (n = 320,000); Transient receptor potential cation channel subfamily V member 1 (Homo sapiens), Q8NER1; TRPV1-expressing cells, Fluo-8 calcium influx, capsaicin EC20 potentiation; host cell line not named in the record; control for the full effect not named in the record; AID 540277, 2011; potentiation, % at 8.33 µM; active means potentiation above 80%; inconclusive means 30% to 80%; inactive means below 30%; also: 0% is about no effect
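Fluo-8 calcium influx in TRPV1-expressing cells, kinetic read (ex 480/em 520 nm). Compound added and read 3 min for agonist activity, followed by capsaicin at EC20 final and 2 min further read for enhancement.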
Sfp PPTase inh: qHTS Assay for Inhibitors of Bacillus subtilis Sfp phosphopantetheinyl transferase (PPTase); 4'-phosphopantetheinyl transferase ffp (Bacillus subtilis), Q9F4F7; Biochemical Sfp PPTase activity, qHTS; Potency, µM, for the others: max response, negative = inhibition, most hits filed as inhibitors; actives 3.5% (n = 310,000); active = well fitted inhibition curve with a large enough effect; inconclusive = small, poorly fitted or top-dose-only effect, or another doubt; inactive = no such curve, though single readings can be large or run the other way;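 also: the enzyme is Sfp with the accession as filed and its product quenches rhodamine fluorescence; potency is read from the fitted curve at half-maximal effect; 0% = enzyme reaction without inhibitor and -100% = no enzyme wells; top concentration of the series not given in the record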
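Step 1, compound plus 15 nM Sfp-PPTase, 15 min, room temperature. Step 2, add rhodamine-CoA (5 uM) and BHQ-2-YbbR (12.5 uM). Step 3, read 525/598 nm fluorescence at 0 and 30 min.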
gsp antagonist: qHTS for Antagonists of gsp, the Etiologic Mutation Responsible for Fibrous Dysplasia/McCune-Albright Syndrome: qHTS | actives 0.4% (n = 340,000) | gsp-mutant cells, cAMP HTRF, 30 min; control for the full effect not named in the record | AID 624288, 2012 | Potency, µM (top dose mostly 76.9 µM), without a hit: at the top dose activity change, negative = inhibition, hits mostly inhibitors; active = falling curve of any shape with a large fitted effect; inconclusive = falling curve, mostly with a smaller effect; inactive = flat or rising curve; cell line not stated here;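 also: intracellular cAMP measured with PDE inhibitor Ro 20-1724 present during compound exposure; potency is read from the fitted curve at half-maximal effect; % is scaled to controls: 0 for no effect and ±100 for the full control effect; nearly all actives have a fitted effect of over 65% in size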
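HTRF cAMP measurement after 30 min RT detection following 30 min, 37C compound treatment alongside […] (added as 300 uM solution) in G418-selected cells seeded at 2000/well and grown 16–24 h.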
TRPML1 inh: qHTS for Inhibitors of the Human Mucolipin Transient Receptor Potential 1 (TRPML1). Mucolipin-1 (Homo sapiens), Q9GZU1. TRPML1-inducible cells, Ca2+ dye fluorescence, FDSS; hits give low values; inhibition of EC80 agonist-evoked calcium signal. activity change, negative = inhibition, % (concentration not given with the values). actives 0.02% (n = 390,000). AID 624415, 2012; in the data active means activity change below about -50%; inconclusive means about -30% to -50%; inactive means above about -30%;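 also: stimulus is agonist 54-4 at its EC80 concentration; % is scaled to controls: 0 for no effect and ±100 for the full control effect; compound concentration not given in the record; the text of the record puts the active cut at -80%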
Target sequence (Q9GZU1 whole entry, looked up): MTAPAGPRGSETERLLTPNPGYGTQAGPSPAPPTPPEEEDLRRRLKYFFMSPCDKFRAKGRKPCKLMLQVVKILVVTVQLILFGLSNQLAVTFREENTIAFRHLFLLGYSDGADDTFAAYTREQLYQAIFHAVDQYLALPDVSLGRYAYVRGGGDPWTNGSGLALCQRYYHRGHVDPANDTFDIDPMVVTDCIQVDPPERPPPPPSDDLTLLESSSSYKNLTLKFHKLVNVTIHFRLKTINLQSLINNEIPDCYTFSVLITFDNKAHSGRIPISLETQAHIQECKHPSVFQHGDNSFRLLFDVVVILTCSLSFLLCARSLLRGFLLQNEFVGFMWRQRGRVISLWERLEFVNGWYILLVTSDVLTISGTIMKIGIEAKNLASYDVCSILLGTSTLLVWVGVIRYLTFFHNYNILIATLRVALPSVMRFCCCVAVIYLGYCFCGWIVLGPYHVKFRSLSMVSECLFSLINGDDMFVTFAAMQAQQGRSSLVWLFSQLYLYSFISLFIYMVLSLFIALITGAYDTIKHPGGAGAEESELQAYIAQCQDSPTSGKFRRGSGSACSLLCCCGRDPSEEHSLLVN
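TRPML1-DL cells, Tet-induced overnight (~16 h, 37 °C) at 1,500 cells/well, were loaded with Ca8 no-wash dye plus quencher for 45-90 min at room temperature. Compounds were pinned during FDSS kinetic reading; agonist 54-4 at EC80 (4 uM final) then added.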
* hit, by the source's call; ? = inconclusive; · = not tested or not shown; & = joins results of further samples; [ ] = dose if it differs, or a comment. Only part of the results is shown; the hit share may differ from the screen's.

Value order: ClpP mod	Menin-MLL FL inh	gsp agonist	TRPV1 PAM	Sfp PPTase inh	gsp antagonist	TRPML1 inh
COC(=O)C1=C(c2ccc(F)cc2OCc2ccccc2)C[C@@H]2CC[C@H]1N2C(=O)NCc1ccccc1
 : -5.0%	·	·	-2	·	-12%	10
COCCCn1c(N)c(C(=O)NCc2ccco2)c2nc3ccccc3nc21
 : ·	?	?	2	22µM*	-6%	23
CCOC(=O)c1ccc(N=Cc2c(O)n(-c3ccccc3F)c(=S)[nH]c2=O)cc1
 : -2.2%	15	-26%	-8	-20%	10%	6
CCCCn1c(O)c(C(CC)=Nc2ccc(C(=O)O)cc2)c(=O)[nH]c1=O
 : 2.5µM*	2.5	-8%	-1	-5%	3%	2
CCNC(=S)NCCC1=c2ccccc2=N/C1=C\c1c(O)n(C)c(=O)n(C)c1=O
 : 0.3%	4.2	-9%	·	16µM*	-16%	11
COC(=O)C1=C(c2ccc(OCc3ccccc3)cc2)C[C@@H]2CC[C@H]1N2C(=O)NCCCc1ccccc1
 : -12%	·	-2%	8	·	1%	24
CCCCC1(CCO)C(=O)NC(=S)NC1=O
 : ·	·	18%	·	·	6%	5
N#CC1c2ccccc2-n2nncc2CN1S(=O)(=O)c1cc(Cl)cc(Cl)c1 (stereo not given)
 : -0.6%	·	·	·	·	1%	-16
CC1CCCCC1NC1CCN(C)CC1 (stereo not given)
 : 0.0%	-2.9	-44%[inhibitor]	28	16%	11%	13
COc1ccc2c(c1)C13CCN(C)C(C2)C1CCC1(C3)OCCO1 (stereo not given)
 : -3.2%	·	-4%	·	·	0%	-20
CN1CCN(C(=O)COc2ccc(S(=O)(=O)N(C)Cc3ccccc3)cc2)CC1
 : 0.0%	4.1	-13%	8	-24%	-7%	7
CCCCCCC(=O)c1c(O)n(-c2ccccc2OC)c(=O)[nH]c1=O (tested in a mixture with another compound)
 : 0.3%	4.7	1%[15.4 µM]	0	18%	-20%	13
CC(=O)c1ccc(OC(NC(=O)Cc2ccccc2)C(Cl)(Cl)Cl)cc1 (stereo not given)
 : 0.2%	-0.9	-37%	3	17%	2%	34
COC(=O)C1=C(c2ccc(F)cc2OCc2ccccc2)C[C@@H]2CC[C@H]1N2C(=O)NCc1ccc(OC)cc1
 : 0.3%	·	-46%[inhibitor]	-4	·	?	-6
CC(=NCCc1c[nH]c2ccccc12)c1c(O)n(Cc2ccccc2)c(=O)[nH]c1=O
 : ·	10	-4%[15.4 µM]	17	4%	-3%	4
COc1ccc(N2C(=O)/C(=C/c3cccs3)C(=O)NC2=S)cc1
 : ·	?	19%[15.4 µM]	-3	8.9µM*	-16%	17
COC(=O)COc1ccc(C(c2c(C)[nH][nH]c2=O)c2c(C)[nH][nH]c2=O)cc1
 : ·	5.0	-48%[inhibitor]	1	8%	3%	4
CC1CC(OP(O)(=S)c2ccc(N(C)C)cc2NC(=O)c2cccs2)CC(C)(C)C1 (stereo not given)
 : ·	1.2	-43%[inhibitor]	-12	10µM*	-25%	1
COc1ccccc1NC(=O)c1cn(CCC#N)nc1-c1cccc(Cl)c1
 : 6.6%	3.9	-25%	-7	4%	-21%	·
CC(Cc1cccs1)NCc1ccc(Cl)cc1 (stereo not given)
 : -5.5%	1.0	-3%[15.4 µM]	-28	26%	7%	19
C[N+]1(C)[C@@H]2CC[C@H]1CC(OC(=O)C(CO)c1ccccc1)C2 (stereo not given in full)
 : 0.6%	-0.3&-0.1	·	0&3	9%&11%	-7%	3
C#CC1(O)C=CC2C3CCC4=CC(=O)CCC4C3CCC21CC (stereo not given)
 : -2.5%	2.2&-1.7	4%	-27	?	-8%	·
O=C(NC1CONC1=O)OCC(Cl)(Cl)Cl (stereo not given)
 : -3.1%	5.3	?	0	-9%	?	-23
CCN(CC)C(=O)c1ccc(NC(=O)Cn2nc(C)c3ccccc3c2=O)cc1
 : -5.6%	4.3	8%	4	5%	0%	-5
CNC(=S)N1CCn2cccc2C1c1cccnc1 (stereo not given)
 : 0.8%	-0.2	-7%[15.4 µM]	10	19%	18%	-5
COc1ccc(CNCCc2ccc(Cl)cc2)c(OC)c1OC
 : -0.7%	2.5	-12%	?	1%	8%	-6
O=C(CCC(=O)N1CCOc2ccc(Cl)cc21)N1CCC2(CC1)OCCO2
 : 0.0%	·	?	9	-3%	1%	-13
Cc1ccccc1N
 : -0.7%	·	·	-2	·	1%	2
CCN(CC)c1ccc(/C=C2\C(=O)NC(=O)N(Cc3ccco3)C2=O)cc1
 : 1.7%	?	-37%[inhibitor]	8	?	-21%	-10
CC12CN3CC(C)(CN(C1)C3c1ccncc1)C2=O (stereo not given)
 : 0.5%	-1.9	?	10	-16%	1%	0

2 entries drawn at random from the list so far:
Value order: ClpP mod	Menin-MLL FL inh	gsp agonist	TRPV1 PAM	Sfp PPTase inh	gsp antagonist	TRPML1 inh
CCN(CC)C(=O)c1ccc(NC(=O)Cn2nc(C)c3ccccc3c2=O)cc1
 : -5.6%	4.3	8%	4	5%	0%	-5
O=C(NC1CONC1=O)OCC(Cl)(Cl)Cl (stereo not given)
 : -3.1%	5.3	?	0	-9%	?	-23

Carrying on.
Value order: ClpP mod	Menin-MLL FL inh	gsp agonist	TRPV1 PAM	Sfp PPTase inh	gsp antagonist	TRPML1 inh
COc1ccc2[nH]cc(CCN)c2c1
 : -12%	-2.0&1.3&1.6	·	9	-4%&-6%&-2%&-9%	-2%	·
COc1ccc(C2N(c3cc(C)on3)C(=O)C3CCCN32)cc1 (stereo not given)
 : ·	-2.0	-2%	-8	-17%	16%	0
CCCCCCOc1ccc(CN2CCN(CCO)CC2)cc1
 : -0.6%	0.2	-48%[inhibitor]	-3	?	12%	6
c1ccc(-c2[nH]c(-c3ccccc3)[n+](CC3CO3)c2-c2ccccc2)cc1 (stereo not given)
 : ?	1.7	?	-1	-12%	-37%	-19
O=S1c2ccccc2-c2ccccc21
 : -10%	·	28%	·	·	·	8
CCC(C)OC(=O)c1c(N)n(Cc2cccs2)c2nc3ccccc3nc12 (stereo not given)
 : 14µM*	14	-3%	2	-3%	-7%	10
N#CC(C#N)=Cc1cccnc1
 : -4.1%	-3.2	-2%[15.4 µM]	1	-25%	8%	-1
C=CCn1c(O)c(C(CC)=Nc2ccc3c(c2)CCC3)c(=O)[nH]c1=O
 : 0.0%	7.9	-15%[15.4 µM]	0	10%	-3%	-2
CC(=O)OC1CC[C@]2(C#N)[C@H]3CC[C@]4(C)[C@H](C5C=CC(=O)O5)CCC4(O)C3CCC2(O)C1 (stereo not given in full)
 : 1.0%	-0.1	-3%	4	19%	-4%	-18
Cc1c(C(=O)NCCC2=CCCCC2)oc2ccc(S(=O)(=O)N3CCC4(CC3)OCCO4)cc12
 : ?	2.0	-12%[15.4 µM]	0	1%	-26%	14
CCc1c(-c2ccccc2)nc2ccccc2c1C(=O)N1CCC2(CC1)OCCO2
 : 1.8%	·	10%	-29	-1%	14%	11
CCN1C[C@]2(COC)CC[C@H](OC)[C@@]34C1[C@]1(OCO[C@@]15C[C@H](OC)[C@H]1C[C@@H]3[C@@H]5[C@H]1OC)[C@@H](O)[C@H]24
 : -2.8%	·	·	-6	·	-1%	-6
CCc1ccc2nc(N3CCC(C(=O)N4CCC5(CC4)OCCO5)CC3)sc2c1
 : ·	0.1	-15%	-2	1%	1%	-6
N#CC(C#N)=Cc1ccc(N2CCOCC2)cc1
 : -1.3%	?	11%	18	14%	-3%	·
O=C1C2CCN(CC2)C1(CO)CO
 : 0.4%	?	-75%[inhibitor]	·	-9%&7%&2%&3%	·	8
C[n+]1c(-c2ccccc2)cc(CCCCc2cc(-c3ccccc3)[n+](C)c(-c3ccccc3)c2)cc1-c1ccccc1
 : ·	16	-3%[15.4 µM]	?	?	-2%	5
COc1cccc(CN2CCC(n3nccc3NC(=O)CCOc3ccccc3)CC2)c1O
 : -2.2%	·	-57%[inhibitor]	·	·	2%	34
COc1cccc(CNC(=O)CSc2ccc(-c3ccco3)nn2)c1
 : 2.1%	-1.4	23%[15.4 µM]	-14	22µM*	5%	-3
O=C(NCc1cccnc1)Nc1ccccc1Cl
 : -2.0%	·	22%	13	12%	?	-5
Cc1cc(=O)n(-c2ccccc2)n1-c1ccccc1
 : -20%	-2.6	-40%[inhibitor]	2	6%	6%	23
CC1=[N+]([O-])C2(N)CCc3nonc3C2(O)C1 (stereo not given)
 : 0.1%	-1.5	2%	?	8%	11%	0
CCOP(=O)(OCC)C(NC(=O)c1ccc(C)cc1)C(Cl)(Cl)Cl (stereo not given)
 : 0.4%	4.4	2%	-20	0%	11%	6
CN1CC(C(=O)c2ccc(Cl)cc2)C(c2ccccc2F)C1 (stereo not given)
 : ·	-2.6	19%[15.4 µM]	2	-17%	·	5
CN1CCc2nc3sc(C(=O)NC(C)(C)C)c(N)c3cc2C1
 : -4.4%	2.4	-31%[inhibitor]	-17	-2%	-25%	1
C1=C(c2ccccc2)CCNC1
 : 3.5%	5.1	-3%[15.4 µM]	-1	5%	-14%	-9
COCCN(C(=O)COC(=O)Cc1ccccc1)c1c(N)n(Cc2ccccc2)c(=O)[nH]c1=O
 : -0.3%	·	-10%	6	·	21%	7
O=C(O)C1Sc2[nH]c(=O)sc2C2c3cc(Cl)ccc3OC(=O)C12 (stereo not given)
 : -3.3%	?	11%	-2	50µM*	-6%	-9

Copied from the list.
CN1CC(C(=O)c2ccc(Cl)cc2)C(c2ccccc2F)C1 (stereo not given) in TRPML1 inh is listed with 5
CCOP(=O)(OCC)C(NC(=O)c1ccc(C)cc1)C(Cl)(Cl)Cl (stereo not given) in gsp agonist is listed with 2%

From PubChem
